RecA intein inh: blocks M. tuberculosis RecA intein splicing; 290,000 tested, 0.75% active; P9WHJ3; cell-free RecA intein splicing, fluorescence; inhibition, %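 (about 9 µM by stock and volumes)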; in the data active = inhibition above about 30%; inconclusive = no clear call, values can overlap the other calls;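 also: 0% = vehicle wells and 100% = reference inhibitor control wells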
Target sequence (P9WHJ3 whole entry, looked up): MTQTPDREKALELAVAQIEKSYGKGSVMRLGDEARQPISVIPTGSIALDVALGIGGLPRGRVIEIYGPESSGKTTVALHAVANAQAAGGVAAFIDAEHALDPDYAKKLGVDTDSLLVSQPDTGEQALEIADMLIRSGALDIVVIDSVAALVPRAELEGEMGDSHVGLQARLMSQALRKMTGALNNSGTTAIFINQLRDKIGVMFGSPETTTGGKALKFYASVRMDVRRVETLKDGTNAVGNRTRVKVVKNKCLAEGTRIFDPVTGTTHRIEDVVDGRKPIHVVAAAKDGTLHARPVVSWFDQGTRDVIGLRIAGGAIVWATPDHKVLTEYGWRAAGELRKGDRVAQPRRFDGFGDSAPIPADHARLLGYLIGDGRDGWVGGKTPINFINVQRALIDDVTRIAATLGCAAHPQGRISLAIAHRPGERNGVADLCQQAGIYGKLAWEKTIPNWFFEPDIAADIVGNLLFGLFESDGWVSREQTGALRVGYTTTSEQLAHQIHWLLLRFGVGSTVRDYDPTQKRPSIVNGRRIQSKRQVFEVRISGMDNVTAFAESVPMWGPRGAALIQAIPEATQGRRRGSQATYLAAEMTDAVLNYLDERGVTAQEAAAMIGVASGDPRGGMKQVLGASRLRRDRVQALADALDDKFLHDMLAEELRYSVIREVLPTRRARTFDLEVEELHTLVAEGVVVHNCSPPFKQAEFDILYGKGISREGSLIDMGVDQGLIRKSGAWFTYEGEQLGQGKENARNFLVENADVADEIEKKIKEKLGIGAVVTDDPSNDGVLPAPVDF
Mtb betalactam: beta-lactam sensitization of Mtb H37Rv; M. tuberculosis H37Rv growth with meropenem, percent inhibition; hits of this screen are not shown here; inhibition, % at 25 µM; 330,000 tested, 0.27% active; AID 434955;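 active = about 74% or more and at least 40 points above the plate without the antibiotic, then above 30% in a dose series; inconclusive = first-round hits that could not be retested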;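 also: growth measured after seven days incubation then overnight dye step; 0% = bacteria only wells and 100% = bacteria with antibiotic; twin plates without the antibiotic show which effects depend on it; some results filed as inactive read as strong as hits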
Mtb growth: M. tuberculosis H37Rv growth inhibitors, H37Rv strain (AID 1626); inhibition, % at 10 µM, or IC50 in µM where a hit was titrated; 220,000 tested, 0.95% active; M. tuberculosis H37Rv growth inhibition; higher % means a stronger effect;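 active = confirmed in a dose series; inconclusive = inhibition above 80% but not taken into the dose series; inactive = below 80% or under 30% at every dose of the series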;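 also: bacteria incubated seven days before Alamar blue readout; 0% = bacteria only wells and 100% = bacteria with antibiotic wells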
Arbovirus anti: blocks arbovirus infection; inhibition, % at 10 µM; arbovirus infection cell-based antiviral screen; 200,000 tested, 0.37% active;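 active = inhibition from about 30%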;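 also: bluetongue infection of BSR cells; cell survival read as ATP light after 72 h; 0% = infected wells without compound and 100% = uninfected wells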
YopH PTP inh: inhibitors of Yersinia enterocolitica YopH tyrosine phosphatase | fluorescence Ex485/Em525 | inhibition, %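 (about 10 µM by stock and volumes)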 | 140,000 tested, 0.16% active;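 active = inhibition of 50% or more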;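 also: controls were vehicle for no effect and minimum signal wells for full effect; inactives centre near -20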
Arbovirus anti repeat: also measured in Arbovirus anti; calls as there; inhibition, %; measured here: 10K subset replicate screen; many hits read low in the repeat;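 first of two repeat runs on a subset; 0% = infected and 100% = uninfected wells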
* marks the source's active call; other numbers are inactive results; ? = inconclusive; . = no result given.

SMILES	RecA intein inh	Mtb betalactam	Mtb growth	Arbovirus anti	YopH PTP inh	others
O=C(NC(=S)NCCOCc1ccc(Cl)cc1)c1cccnc1	5.4	-13	?	4	-32
COc1ccc(CCNC(=O)Nc2cccc([N+](=O)[O-])c2)cc1OC	0.5	6	4%	2	.
O=C(Cn1cnc2scc(-c3ccc(Cl)cc3)c2c1=O)N1CCOCC1	0.0	-7	-6%	.	.
O=C(OCc1ccccc1)/C(=C/c1cccc(Br)c1)NC(=O)c1ccco1	7.9	17	.	.	.
CC(C)N(C(=O)CSc1nc2ccccc2c(=O)[nH]1)C(C)C	2.0	-15	-2%	-3	.
CCCS(=O)(=O)N1CCCC(C(=O)NC2CCCC(C)C2C)C1 (centres undefined)	0.2	-10	-1%	0	-31
CC1(C)C2CCC1(CS(=O)(=O)Nc1ccc(S(=O)(=O)N3CCCCC3)cc1)C(=O)C2 (centres undefined)	3.1	-11	-4%	2	-25
C[N+]1(CC(COCc2ccccc2)OC(=O)Cc2ccccc2)CCOCC1 (centres undefined)	0.0	1	7%	4	-16
CC(C)CN(C(=O)C1CSC2(C)CCC(=O)N12)c1c(N)n(Cc2ccccc2)c(=O)[nH]c1=O (centres undefined)	-1.4	-12	.	.	.
COc1ccc(CN(C)C(=S)Nc2ccc(OC(F)F)cc2)cc1	4.6	-7	2%	1	.
O=[N+]([O-])/C(C(=C(Cl)Cl)N1CCN(Cc2ccccc2)CC1)=C1\NCCN1Cc1ccc(Cl)nc1	13	-4	-3%	-3	.
CC(C)(O)[C@@H]1[C@H]2OC(=O)[C@@H]1[C@]1(O)C[C@H]3O[C@]34C(=O)O[C@H]2[C@]14C (tested in a mixture with another compound)	-1.1	-6	-2%	.	.
O=C(N/N=C/C(Cl)=C/c1ccc([N+](=O)[O-])cc1)C(=O)Nc1ccc(C(=O)O)cc1	3.5	9	-5%	.	.
Cc1ccc(Cl)cc1NC(=O)CCn1cccc1	-1.9	2	-14%	-2	-23
C/C(=N\NC(=O)c1nnn(-c2nonc2N)c1-c1cccs1)c1cccc(O)c1	-1.6	9	.	.	.
CC(NC(=O)/C(C#N)=C/c1cccs1)c1ccccc1 (centres undefined)	1.7	2	4%	5	.
O=C(Nc1ccc(N2CCOCC2)cc1)c1cc2c(s1)CCCCC2	-0.5	6	-4%	-35	.
C=C1C2C[C@H](O)C(C)(C)[C@@]2(O)[C@H](O)C[C@]23C[C@@](C)(O)[C@H](CC[C@H]12)[C@H]3OC(C)=O (some centres undefined)	-1.0	-7	-18%	0	-33
CCOC(=O)c1c(C)oc2ccc(OCC(=O)N(CC)CC)cc12	-0.3	91	10%	4	14
CN(Cc1c(C(=O)N/N=C/c2cccc(O)c2)nnn1-c1nonc1N)C1CCCCC1	-1.9	7	.	.	.
Oc1ccc(/C=N/N=C/c2ccc(O)c(O)c2)cc1O	-6.5	3	.	.	.
Cc1ccc(NC(=O)c2cc(NC(=O)c3ccco3)ccc2N2CCCCC2)cc1	-3.1	20	-13%	-9	-32
O=C(Cn1cccc1C(=O)c1ccccc1)NCCCc1ccccc1	4.5	9	.	.	.
c1ccc(-c2nc(NCCCn3ccnc3)c3oc4ccccc4c3n2)cc1	7.8	100	2.8µM*	-12	-2
NC(=O)c1ccc(NC(=O)CCNC(=O)c2ccco2)cc1	1.5	-9	-7%	.	.
COc1ccccc1NC(=O)C12CCC(C)(C(=O)C1)C2(C)C (centres undefined)	-0.9	2	7%	2	.
CCCCc1nc(NCCNC(=O)c2ccco2)c(C#N)c2c1CSC(C)(C)C2	.	-1	-2%	-9	-4
CC/C(=C/c1sc2ccc(C)cc2[n+]1CCO)SC	34*	1	-1%	-10	.
CCOC(=O)CN1CC23C=CC(O2)C(C(=O)Nc2ccc(F)c(C)c2)C3C1=O (centres undefined)	-0.8	1	-12%	-3	6
Clc1cc(Cl)cc(CSc2nnc(-c3sccc3-n3cccc3)o2)c1	-1.1	1	1%	0	-20
Brc1ccc(OCCCCN2CCCCC2)cc1	-3.6	-3	.	.	.
N#Cc1ccccc1COC(=O)c1ccc(Br)o1	0.2	36	.	.	.
COCCCNC(=O)C1CCN(c2ccc(N3CCOCC3)nn2)CC1	-9.7	-2	-3%	.	.
Cc1nc2c(c(=O)c3ccccc3n2C)c(=O)n1-c1ccccc1	-1.5	0	-15%	.	.
CCCCC1(C)OC(=O)C(=Cc2ccc(-c3ccc(Cl)c(C(=O)O)c3)o2)C(=O)O1 (centres undefined)	-3.8	-4	1%	.	.
CC1(C)CC(=O)C(C(=O)C2CCN(S(=O)(=O)c3ccccc3)CC2)C(=O)C1	0.8	5	4%	-1	.
Cc1cccc(NC(=O)CSc2nnc(-c3ccccc3Br)o2)c1C	1.3	-5	3%	3	-16
c1ccc(N/N=C2\CCCc3ccccc32)nc1	1.6	55	7%	-34	.
CC(CNC(=O)CN1C(=O)c2cccnc2Oc2ccc(Cl)cc21)c1ccccc1 (centres undefined)	-1.5	?	.	.	.
COc1ccc(NC(=O)COc2ccc(Br)cc2)c(OC)c1	2.5	-1	.	.	.
CCOc1ccc(Nc2ccnc3cc(Cl)ccc23)cc1	0.4	91	.	.	.
Cn1ncc2c(Nc3ccc(Br)cc3)nc(Nc3ccc(Br)cc3)nc21	-2.2	89	?	.	.
CCOc1ccc(OCC)c(S(=O)(=O)NCCCN2CCOCC2)c1	.	-19	1%	1	-13	Arbovirus anti repeat=9
COc1ccc(C(=O)Nn2c(SCC(=O)NCc3ccccc3)nc3ccccc3c2=O)cc1	0.2	?	-3%	-4	6
O=C(Nc1ccc(Cl)cc1)Nc1ccc(-c2cnco2)cc1	-1.7	48	.	.	.
CCN(CC)CCNC(=O)c1cc2c(=O)n(C)c3ccccc3c2s1	-1.8	-17	.	.	.
COc1ccsc1C(=O)N1CCN(Cc2ccc3c(c2)OCO3)CC1	-1.7	-10	-1%	-10	5
CCOc1ncccc1C(=O)NNC(=O)c1cccc(S(=O)(=O)Nc2ccccc2OC)c1	-1.1	0	.	.	.
Cc1cc2c(ncn2Cc2ccccc2)c(NS(C)(=O)=O)c1C	-1.2	8	-6%	-9	-19
S=C(NCc1ccccc1)Nc1ccncc1	2.5	0	.	.	.
CCOCCCNC(=O)c1cc(Sc2ccc(C)cc2)nc2ccccc12	2.6	9	10%	-2	-19
CCCc1ccc(OCC(O)CN2CCN(C(=O)OCC)CC2)cc1 (centres undefined)	-0.7	-3	.	.	.
CC(=O)N/C(=C\c1ccc(F)cc1)C(=O)OC(C)C	-5.2	4	.	2	23
O=C(/C=C1\NC2(CCCC2)Cc2ccccc21)C(=O)N/N=C/c1ccccc1O	-12	14	19%	-29	-21
Cc1ccc(S(=O)(=O)N(CC2CO2)c2cccc([N+](=O)[O-])c2)cc1 (centres undefined)	10	-5	.	.	.
O=C1NCC(=O)N2C(c3ccccc3)c3[nH]c4ccccc4c3C[C@@H]12 (some centres undefined)	2.1	-1	.	.	.
COc1ccc(C/C(C)=N/NC(=S)Nc2ccc(C)c(C)c2)cc1	2.9	-4	10%	-2	-17
CSc1ccc(CCNC(=O)CSc2ccsc2[N+](=O)[O-])cc1	-4.6	-6	6%	-3	-35
CC(C)C(=O)Nc1cc(-c2nc3ncccc3o2)ccc1Cl	1.0	1	.	.	.
CCOC(=O)CN1N=C(/C=C/c2ccc(C(C)C)cc2)CCC1=O	1.7	5	-2%	2	.

As a working copy, some entries already given:
SMILES	RecA intein inh	Mtb betalactam	Mtb growth	Arbovirus anti	YopH PTP inh	others
COc1ccc(C(=O)Nn2c(SCC(=O)NCc3ccccc3)nc3ccccc3c2=O)cc1	0.2	?	-3%	-4	6
O=C(Nc1ccc(Cl)cc1)Nc1ccc(-c2cnco2)cc1	-1.7	48	.	.	.
CCN(CC)CCNC(=O)c1cc2c(=O)n(C)c3ccccc3c2s1	-1.8	-17	.	.	.
COc1ccsc1C(=O)N1CCN(Cc2ccc3c(c2)OCO3)CC1	-1.7	-10	-1%	-10	5
CCOc1ncccc1C(=O)NNC(=O)c1cccc(S(=O)(=O)Nc2ccccc2OC)c1	-1.1	0	.	.	.
Cc1cc2c(ncn2Cc2ccccc2)c(NS(C)(=O)=O)c1C	-1.2	8	-6%	-9	-19
S=C(NCc1ccccc1)Nc1ccncc1	2.5	0	.	.	.
CCOCCCNC(=O)c1cc(Sc2ccc(C)cc2)nc2ccccc12	2.6	9	10%	-2	-19
CCCc1ccc(OCC(O)CN2CCN(C(=O)OCC)CC2)cc1 (centres undefined)	-0.7	-3	.	.	.
CC(=O)N/C(=C\c1ccc(F)cc1)C(=O)OC(C)C	-5.2	4	.	2	23
O=C(/C=C1\NC2(CCCC2)Cc2ccccc21)C(=O)N/N=C/c1ccccc1O	-12	14	19%	-29	-21
Cc1ccc(S(=O)(=O)N(CC2CO2)c2cccc([N+](=O)[O-])c2)cc1 (centres undefined)	10	-5	.	.	.
O=C1NCC(=O)N2C(c3ccccc3)c3[nH]c4ccccc4c3C[C@@H]12 (some centres undefined)	2.1	-1	.	.	.
COc1ccc(C/C(C)=N/NC(=S)Nc2ccc(C)c(C)c2)cc1	2.9	-4	10%	-2	-17
CSc1ccc(CCNC(=O)CSc2ccsc2[N+](=O)[O-])cc1	-4.6	-6	6%	-3	-35
CC(C)C(=O)Nc1cc(-c2nc3ncccc3o2)ccc1Cl	1.0	1	.	.	.

Additional results
SMILES	RecA intein inh	Mtb betalactam	Mtb growth	Arbovirus anti	YopH PTP inh	others
Fc1ccc(COc2cccc(-c3n[nH]c(=S)o3)c2)cc1	5.2	3	-1%	-4	.
Cc1cnc(SCc2cnc(C)nc2N)nc1	22	2	-3%	5	.
CCN(Cc1ccncc1)Cc1nc(CC2CC2)no1	-1.3	-1	-3%	5	.
Cc1ccc(Cn2c(CCNc3nc(-c4ccc(C)cc4)cs3)nc3cc(C(=O)NCCCO)ccc32)cc1	2.3	-4	-1%	.	.
CC(=O)c1ccc(NC(=O)Nc2ccncc2)cc1	0.2	4	0%	10	.
O=C(NN1C(=O)C2C3C=CC(C4CC34)C2C1=O)c1ccc(Br)cc1 (centres undefined)	1.9	-2	-9%	4	.
COc1ccc(CN(C)C(=O)c2ccncc2)c(OC)c1	0.6	17	.	.	.
CCOC(=O)c1cccc(NC(=O)C(NS(=O)(=O)c2ccc3c(c2)CCN3C(C)=O)C(C)C)c1 (centres undefined)	.	5	-3%	7	-20
CC(C)c1ccc(NC(=S)Nc2ccc3cn[nH]c3c2)cc1	4.6	90	58%	11	.
CC(=O)OC1CCC2(C)C(COc3ccc4ccc(=O)oc4c3)C(C)(O)CCC2C1(C)C (centres undefined)	8.7	15	0%	-12	-39
COc1ccc(NC(=O)C2CCN(S(=O)(=O)c3ccccc3)CC2)cc1	-0.4	-16	.	.	.
N#C/C(=C(/O)COc1ccccc1)c1nnc2n1CCCCC2	-4.3	4	2%	6	.
CCOc1ccc(/C(O)=C2/C(=O)C(=O)N(CCCN3CCOCC3)C2c2ccc(F)cc2)cc1C (centres undefined)	2.9	-3	.	.	.
CCOC(=O)CCCNC(=O)CSc1nnc(-c2ccccc2)c(-c2ccccc2)n1	3.3	4	.	.	.
O=C(CCN1C(=O)COc2ccccc21)NCc1cccnc1	-2.8	-3	1%	-4	-20
CN(C)C(CNC(=O)c1ccccc1C(F)(F)F)c1ccco1 (centres undefined)	-2.0	-8	.	.	.
C=CCOC(=O)/C(=C/c1cccc2ccccc12)NC(=O)c1ccccc1	6.3	1	2%	6	-39
Nc1ccc(C(=O)N2CCN(S(=O)(=O)c3ccc4c(c3)OCCO4)CC2)cc1[N+](=O)[O-]	-2.6	-3	.	.	.
COc1cc2[nH]c(=O)c(C(=O)NCc3ccc(F)cc3)c(O)c2cc1OC	0.5	13	.	.	.
Brc1ccccc1/C=N/Nc1ccccn1	0.0	7	5%	0	.
CCn1nccc1C(=O)Nc1ccc(Cl)cc1Cl	-0.5	3	-2%	-6	-12
O=C(Nc1ccc(Cl)cc1C(=O)NCCN1CCOCC1)c1ccco1	1.8	2	-3%	2	-4
O=C1CC(c2ccco2)c2ccc3ccccc3c2N1 (centres undefined)	.	27	8%	-1	1
CCN(CC(=O)Nc1c(F)cccc1F)C(=O)CNC(=O)c1ccc(C)s1	-5.3	1	.	.	.
Cc1ccc(NC(=O)CCOc2ccccc2)c(C)c1	1.0	14	.	.	.
CSc1nc(-c2ccco2)cc(C(F)(F)F)c1C#N	-1.5	-3	-3%	-2	-28
CCOc1ccc(CN(C)C(=O)c2cccnc2SC)cc1OC	1.0	5	-7%	17	.
CN(C)S(=O)(=O)c1ccc(S(=O)(=O)N(Cc2ccco2)Cc2ccccc2Cl)cc1	0.9	-1	1%	-2	-18

This is a subset. The share of hits here may be higher or lower than overall.
